# YopH PTP inh: YopH (Yersinia) phosphatase inhibition | inhibition, %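 (about 10 µM by stock and volumes)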 | fluorescence Ex485/Em525 | 140,000 tested, 0.16% active;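 active means inhibition of 50% or more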;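 further: controls were vehicle for no effect and minimum signal wells for full effect; inactives centre near -20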
# Mtb betalactam: beta-lactam sensitization of Mtb H37Rv; M. tuberculosis H37Rv growth with meropenem, percent inhibition; hits of this screen are not shown here; inhibition, % at 25 µM; 330,000 tested, 0.27% active;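 active means about 74% or more and at least 40 points above the plate without the antibiotic, then above 30% in a dose series; inconclusive means first-round hits that could not be retested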;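 further: growth measured after seven days incubation then overnight dye step; 0% = bacteria only wells and 100% = bacteria with antibiotic; twin plates without the antibiotic show which effects depend on it; some results filed as inactive read as strong as hits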
# Arbovirus anti: antivirals against arbovirus infection; arbovirus infection cell-based antiviral screen; inhibition, % at 10 µM; 200,000 tested, 0.37% active;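 active means inhibition from about 30%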;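 further: bluetongue infection of BSR cells; cell survival read as ATP light after 72 h; 0% = infected wells without compound and 100% = uninfected wells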
# RecA intein inh: blocks M. tuberculosis RecA intein splicing; inhibition, %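 (about 9 µM by stock and volumes)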; cell-free RecA intein splicing, fluorescence; P9WHJ3; 290,000 tested, 0.75% active; AID 2221; in the data active means inhibition above about 30%; inconclusive means no clear call, values can overlap the other calls;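 further: 0% = vehicle wells and 100% = reference inhibitor control wells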
# Target sequence (P9WHJ3 whole entry, looked up): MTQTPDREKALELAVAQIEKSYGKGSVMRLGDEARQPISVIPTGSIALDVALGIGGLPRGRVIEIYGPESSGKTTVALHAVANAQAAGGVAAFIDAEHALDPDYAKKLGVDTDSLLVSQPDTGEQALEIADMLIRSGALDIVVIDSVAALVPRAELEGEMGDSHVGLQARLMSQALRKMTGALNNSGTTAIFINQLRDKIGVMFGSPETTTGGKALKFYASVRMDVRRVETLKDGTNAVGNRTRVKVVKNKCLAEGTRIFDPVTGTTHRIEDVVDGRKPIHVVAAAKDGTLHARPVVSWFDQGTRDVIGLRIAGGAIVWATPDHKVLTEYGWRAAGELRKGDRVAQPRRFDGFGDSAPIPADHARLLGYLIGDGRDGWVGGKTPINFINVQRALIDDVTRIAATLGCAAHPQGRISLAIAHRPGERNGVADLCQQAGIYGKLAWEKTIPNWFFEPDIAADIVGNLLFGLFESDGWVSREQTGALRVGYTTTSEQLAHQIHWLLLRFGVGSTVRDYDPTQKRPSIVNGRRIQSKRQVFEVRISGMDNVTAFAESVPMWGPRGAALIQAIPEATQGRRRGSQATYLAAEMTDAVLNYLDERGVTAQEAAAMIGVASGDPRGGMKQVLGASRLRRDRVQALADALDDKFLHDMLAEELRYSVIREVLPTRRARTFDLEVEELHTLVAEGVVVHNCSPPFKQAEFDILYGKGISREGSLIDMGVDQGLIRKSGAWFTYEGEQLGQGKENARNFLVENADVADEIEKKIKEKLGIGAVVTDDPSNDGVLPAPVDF
# Mtb growth: M. tuberculosis H37Rv growth inhibitors, H37Rv strain (AID 1626) | M. tuberculosis H37Rv growth inhibition; higher % means a stronger effect | one-dose inhibition, % at 10 µM; IC50 in µM for titrated hits | 220,000 tested, 0.95% active;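 active means confirmed in a dose series; inconclusive means inhibition above 80% but not taken into the dose series; inactive means below 80% or under 30% at every dose of the series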;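 further: bacteria incubated seven days before Alamar blue readout; 0% = bacteria only wells and 100% = bacteria with antibiotic wells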
# Arbovirus anti repeat: recorded beside Arbovirus anti, whose call it bears; inhibition, %; measured here: 10K subset replicate screen; many hits read low in the repeat;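 first of two repeat runs on a subset; 0% = infected and 100% = uninfected wells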
# Starred values were filed as active, the others as inactive; u = inconclusive; x = not tested or not shown. Only part of the results is shown; the hit share may differ from the screen's.
SMILES,YopH PTP inh,Mtb betalactam,Arbovirus anti,RecA intein inh,Mtb growth,others
O=C(CSc1nc(-c2ccco2)cc(C(F)(F)F)n1)Nc1ccc2c(c1)OCO2,-13,-7,-19,0.1,-1%,
COc1ccc(Cl)cc1NC(=O)C1CC(=O)N(c2ccc(F)cc2)C1 (centres undefined),29,-4,-3,-0.7,-12%,
O=C1CN(S(=O)(=O)c2ccc([N+](=O)[O-])cc2)CC(=O)N1,x,-1,x,-0.3,x,
Cc1ccc(SCC(=O)NNC(=O)c2ccc(S(C)(=O)=O)cc2)cc1,x,6,x,1.9,x,
Clc1ccc(-c2nc3ncccn3c2Nc2ccc3c(c2)OCO3)cc1,-23,-1,-5,0.0,8%,
Oc1ccc(CNc2ccc(F)cc2)c2cccnc12,-65,63,-20,3.0,-7%,
C=CCc1ccccc1OCC(O)CN1C(=O)c2ccccc2C1=O (centres undefined),x,-2,x,2.4,x,
Clc1ccccc1Nc1ncnc2c1nnn2Cc1ccccc1,-35,u,-33,-0.7,8%,
CCOc1ccc(C(C)=O)cc1CSc1nnc(N)s1,x,-9,-4,-0.6,-1%,
CC(CN1CCC(n2nccc2NC(=O)C2CCCC2)CC1)c1ccccc1 (centres undefined),x,u,x,2.1,x,
COc1ccc(NS(=O)(=O)c2ccc(-c3ccccn3)s2)cc1,x,-11,x,-2.5,x,
CCCN1CCC(=O)N(CCSc2ccc(OC)cc2)CC1,x,-7,x,-1.9,0%,
c1ccc(CSc2nnc(-c3ccco3)c(-c3ccco3)n2)cc1,-17,-1,13,18,-2%,
COc1cc(/C=N/NC(=O)c2ccncc2)ccc1OC(=O)c1ccc([N+](=O)[O-])cc1,-29,99,7,-0.1,u,
Cc1cc(C)cc(NC(=O)Cn2c(=O)oc3cc(S(=O)(=O)N4CCC(C)CC4)ccc32)c1,2,2,-3,0.9,-3%,
COc1cccc(CC(NC(C)=O)C(=O)NC2CCN(c3c(Cc4ccccc4)c(C)nc4ncnn34)CC2)c1OC (centres undefined),-23,1,-4,-1.5,4%,
O=C(CCN1C(=O)/C(=C/c2cccc(Br)c2)SC1=S)Nc1cccnc1,x,-1,-8,1.0,-23%,
CCOC(=O)c1ccc(NC(=S)NNC(=O)COC)cc1,-32,3,4,-3.8,u,
CN(C)/C=C1\NC(=S)N(c2ccccc2)C1=O,x,-3,2,x,2%,
COc1cc([N+](=O)[O-])ccc1NC(=O)c1cccc(NC(=O)C(C)C)c1,x,2,11,1.6,10%,
CCCCOc1ccc(S(=O)(=O)N2CCCCC2)cc1,x,-6,x,-1.7,x,
COc1ccc(CN2CCCCCC2)c(C)c1C,-8,-7,-5,-2.0,-8%,
CSc1ccccc1NC(=O)CN(C)CC(=O)NCC(=O)Nc1ccc(F)cc1,x,-1,x,-3.9,x,
O=C(Cc1ccc(F)cc1)Nc1ccccc1N1CCCC1,x,8,x,0.9,x,
COc1ccc(S(=O)(=O)C(C#N)c2nc3ccccc3nc2N2CCC(C)CC2)cc1 (centres undefined),x,-10,14,-14,5%,Arbovirus anti repeat=12
Cc1cc(/C=N/NC(=O)c2cccc([N+](=O)[O-])c2)c(C)n1-c1ccccc1,-4,33,-3,x,9%,
O=C(COc1ccc(S(=O)(=O)N2CCOCC2)cc1Cl)NCc1ccco1,x,-1,x,-0.7,x,
O=C(CCc1ccccc1)NCCSc1ccccc1,x,-7,-1,-1.0,5%,
CN1CCN(c2nc(-c3ccccc3)nc(-c3ccccc3)c2C#N)CC1,x,82,-14,-0.4,20%,
COC(=O)CSc1nnc(-c2cccnc2)o1,22,u,2,-3.7,-7%,
FC(F)(F)c1nc(-c2ccncc2)ncc1-c1nnnn1-c1ccccc1,-22,-4,1,9.6,0%,
CCc1cc(=O)oc2cc(C)cc(OC(C)C(=O)NC3CC(C)(C)NC(C)(C)C3)c12 (centres undefined),x,-6,x,-1.6,x,
O=C(CSc1nnc(-c2cc3ccccc3cc2O)n1Cc1ccco1)N1CCc2ccccc2C1,-22,11,8,14,1%,
Cc1ccc(NC(=O)c2ccccc2OCC(=O)c2ccccc2)cc1,0,10,-9,1.0,3%,
CCC(=O)N1CCN(c2c(Cl)cccc2[N+](=O)[O-])CC1,-30,-12,4,4.0,5%,
COc1ccc(C(=O)NCc2ccc(N3CCN(C)CC3)cc2)cc1,x,-4,x,0.4,x,
Cc1ccccc1Cc1c(C)nc2nc(SCC(=O)N3CCC4(CC3)OCCO4)nn2c1C,-29,1,14,-2.7,-1%,
COc1ccc(C2=NOC(C(=O)NCCCn3ccnc3)C2)cc1 (centres undefined),-30,5,1,-0.8,4%,
COc1cc(CNc2ccc(C(=O)O)cc2)cc(Br)c1OCC(=O)NC(C)(C)C,-10,2,1,-24,6%,
CCOC(=O)C1(CC2CCCCO2)CCN(Cc2nc3ccccc3[nH]2)CC1 (centres undefined),x,0,6,3.2,2%,
O=C(O)CCN1c2cccc3cccc(c23)S1(=O)=O,x,4,x,-0.5,x,
CCS(=O)(=O)NCC(c1cccnc1)N1CCN(c2ccccc2OC)CC1 (centres undefined),-26,5,8,-4.4,-2%,Arbovirus anti repeat=0
Cc1c(C(=O)NCc2cccnc2)oc2ccc(S(=O)(=O)N3CCCC(C)C3)cc12 (centres undefined),-27,-4,3,-0.6,7%,
CC(C)CC(NC(=O)C1CCC(C)CC1)C(=O)Nc1ccccc1F (centres undefined),x,-2,x,1.6,x,
CCCC(c1nnnn1CS(=O)(=O)c1ccc(C)cc1)N1CCN(c2ccccc2)CC1 (centres undefined),-22,-2,-2,3.3,9%,
CC(NC(=O)Cn1cnc2c1c(=O)n(C)c(=O)n2C)c1ccccc1 (centres undefined),-44,-10,-5,-2.8,x,
CCN1CCN(C(=O)CCn2c(=O)c3cccn3c3cccnc32)CC1,x,1,x,-2.3,x,
CCc1ccc(NC(=O)Nc2ccsc2C(=O)OC)cc1,x,1,x,11,x,
O=C1Nc2ccc(Br)cc2/C1=C/C(=O)c1ccc2c(c1)OCO2,x,99,x,49*,u,
Cc1cc2oc(C(=O)NCCc3ccc(S(N)(=O)=O)cc3)cc(=O)c2cc1C,x,-4,x,-0.8,x,
Cc1cccc(NC(=O)c2ccc3c(=O)n4c(nc3c2)CCCCC4)n1,x,1,x,-0.4,x,
O=c1cc(C(F)(F)F)oc2c1ccc1ccccc12,-28,-5,7,2.1,-2%,
Cn1c(-c2ccccc2)c(C(=O)CCl)c2ccccc21,x,x,-29,42*,1.7µM*,
O=C(CCCn1c(=O)[nH]c2ccc(Br)cc2c1=O)NCc1ccc(Cl)cc1,x,-9,-6,-2.2,4%,
O=C1c2ccccc2C(=O)N1CCSc1ncn[nH]1,-16,-6,6,2.1,-1%,
Cc1csc2c(NCCCN3CCOCC3)ncnc12,x,-9,x,1.5,1%,
Cc1ccc(Cl)c(OCC(=O)NN2CCN(C)CC2)c1,x,2,x,-1.5,-3%,
Cc1ccc(CNC(=O)CCC(=O)Nc2nnc(C3CCCCC3)s2)cc1,x,-2,x,x,5%,
Cc1noc(C)c1CSc1nnc2scc(-c3ccc(Cl)cc3)n12,-15,u,5,3.9,-5%,
COc1cc(/C=C/C(=O)O)cc(Br)c1O,x,7,x,-7.0,3%,

# Next section:
SMILES,YopH PTP inh,Mtb betalactam,Arbovirus anti,RecA intein inh,Mtb growth,others
CCOC(=O)c1cc(CC)sc1NC(=O)C1CC1,-21,53,-13,-1.2,9%,
CN(CC(=O)NCCc1ccc(Cl)cc1)S(=O)(=O)c1ccc2c(c1)c(=O)n(C)c(=O)n2C,-34,3,-4,1.7,-3%,
CCOc1ccc(-c2nnn(CCC(=O)O)n2)cc1OC,7,-6,8,-5.1,-4%,
CN(C)S(=O)(=O)c1ccc(C(=O)NCCN=C2NS(=O)(=O)c3ccccc32)cc1,x,4,x,-1.5,x,
Cc1ccccc1-n1c(=O)[nH]c(=O)c2c(N)c(C(=O)c3ccc(Cl)cc3)sc21,-36,75,-4,-11,66%,
CC(C)OC(=O)CSc1nnc(-c2ccc([N+](=O)[O-])cc2)o1,x,100,6,0.4,u,
COc1ccccc1NC(=O)CSc1ccc(-c2cccs2)nn1,x,7,-5,3.6,0%,
COCCNC(=O)c1onc(CSc2cc(C)ccc2C)c1C(=O)O,-9,22,9,-1.1,-4%,
C=CCc1cccc2cc(C(=O)N(CC)CC)c(=O)oc12,-37,10,18,-2.6,-7%,
Cc1ccc(Cn2nnnc2CN2CCC(NC(=O)C(C)(C)C)CC2)cc1,x,4,6,-1.1,-3%,
CC(=O)c1cc(OC(=O)N2CCOCC2)ccc1OC(=O)N1CCOCC1,-42,-4,6,1.3,-5%,
O=C(NC(=S)Nc1ccc(F)c(Cl)c1)C1CC1,x,-7,x,2.0,x,
CCCCN1C(=O)C(O)(c2ccccc2)c2cc(Br)ccc21 (centres undefined),x,0,x,9.4,x,
COc1ccc(C(=O)c2c[nH]c3ccccc23)cc1,-16,-4,-7,-2.1,0%,Arbovirus anti repeat=2
O=C(N/N=C/c1ccncc1)c1ccc(OCc2ccccc2)cc1,x,96,x,1.1,79%,
Cc1ccc(-c2nc(C#N)c(NCc3cccc4c3OCO4)o2)cc1,1,14,-9,1.8,1%,
COCCCNC(=O)CSc1ccc(Cl)cc1,-1,-7,-1,0.0,-2%,Arbovirus anti repeat=-2
Nc1cc(N)cc(C(=O)OCC(=O)Nc2cc(S(=O)(=O)N3CCCCC3)ccc2Cl)c1,x,-1,21,1.7,30%,
COc1ccccc1C(CC(=O)N1CCCC1)c1ccc2c(c1)OCO2 (centres undefined),x,-4,17,-4.0,6%,
Cc1ccc(C)c(NC(=O)CSc2sc3c(O)cc(=O)[nH]c3c2C#N)c1,x,4,x,-0.7,x,
O=C(NCC(=O)N(c1ccccc1F)C(C(=O)NCC1CCCO1)c1ccccc1)c1ccco1 (centres undefined),-6,1,2,-0.6,-13%,
COc1cccc(NC(=S)N2CCn3c(nc4ccccc43)C2)c1,x,1,9,1.3,-5%,
Cc1ccc(NS(=O)(=O)c2ccc(CCC(=O)NCCO)cc2)cc1,10,-8,-3,1.1,-1%,
CC1CN(c2nc3c(c(=O)[nH]c(=O)n3C)n2Cc2ccccc2F)CC(C)O1 (centres undefined),-6,u,3,2.3,-8%,Arbovirus anti repeat=0
COc1ccc(/C=C\C(=O)CC(O)(c2ccccc2)C(F)(F)F)cc1 (centres undefined),-6,-6,-39,x,-11%,
O=C(CSc1nnc(-c2ccccc2F)o1)NC1CCCCC1,x,6,x,-2.2,x,
Nn1c(SCC(=O)NC2CCCc3ccccc32)nnc1-c1ccc(Cl)cc1Cl (centres undefined),-23,x,4,x,6%,
O=C(CSc1ccc(-c2ccc(F)cc2)nn1)NCCc1ccccc1,x,16,-1,-0.5,2%,
O=C(O)Cn1nc(-c2ccccc2)oc1=O,-12,-11,5,1.5,-9%,
O=C(Oc1ccccc1Cl)c1ccc(-n2cncn2)nc1,-44,-8,12,5.5,1%,

# The last 2 records of the part above are carried over, then new ones follow.
SMILES,YopH PTP inh,Mtb betalactam,Arbovirus anti,RecA intein inh,Mtb growth,others
O=C(O)Cn1nc(-c2ccccc2)oc1=O,-12,-11,5,1.5,-9%,
O=C(Oc1ccccc1Cl)c1ccc(-n2cncn2)nc1,-44,-8,12,5.5,1%,
COc1ccccc1/C=C/CN1CCC(n2nccc2NC(=O)C2CC2)CC1,x,-8,x,-1.0,x,
Clc1ccc(C2=Nn3c(nnc3-c3n[nH]c4c3CCC4)SC2)cc1Cl,-23,11,-27,1.5,2%,
CC(C)c1cc(Nc2cccc(O)c2)cc(C(C)C)c1O,-39,-1,x,4.0,-8%,
Cc1cccc(CCNC(=O)CCS(=O)(=O)c2cc3c(cc2C)NC(=O)CO3)c1,x,-6,x,0.7,x,
CN(CCc1ccccc1)Cc1c[nH]c2ccccc12,x,-1,x,1.0,x,
CCOc1ccccc1N(C)C(=O)c1ccc2c(=O)n3c(nc2c1)CCCCC3,x,-2,x,0.1,x,
CC(=O)Nc1ccc(S(=O)(=O)N2CCN(CCC#N)CC2)cc1,-17,-2,7,-0.6,-11%,Arbovirus anti repeat=3

# Among those listed so far, 6 have a furan ring, fused or not.
SMILES,YopH PTP inh,Mtb betalactam,Arbovirus anti,RecA intein inh,Mtb growth,others
O=C(CSc1nc(-c2ccco2)cc(C(F)(F)F)n1)Nc1ccc2c(c1)OCO2,-13,-7,-19,0.1,-1%,
c1ccc(CSc2nnc(-c3ccco3)c(-c3ccco3)n2)cc1,-17,-1,13,18,-2%,
O=C(COc1ccc(S(=O)(=O)N2CCOCC2)cc1Cl)NCc1ccco1,x,-1,x,-0.7,x,
O=C(CSc1nnc(-c2cc3ccccc3cc2O)n1Cc1ccco1)N1CCc2ccccc2C1,-22,11,8,14,1%,
Cc1c(C(=O)NCc2cccnc2)oc2ccc(S(=O)(=O)N3CCCC(C)C3)cc12 (centres undefined),-27,-4,3,-0.6,7%,
O=C(NCC(=O)N(c1ccccc1F)C(C(=O)NCC1CCCO1)c1ccccc1)c1ccco1 (centres undefined),-6,1,2,-0.6,-13%,

# Screening data: PubChem, several laboratories
